Compound activity from PubChem.
TAR Tat displ: HIV-1 TAR-Tat binding disruption; HIV-1 TAR RNA, Tat peptide displacement FRET; hits give high values; z-score (no concentration beside the values); 0.6% of 100,000 active; AID 1259389;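 note: score is relative to mean and SD of negative controls; some compounds called inactive have numbers as strong as hits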
CDC25B-CDK2 inh: human CDC25B-CDK2/CyclinA binding inhibition | P30305+P24941 | HTRF CDC25B-CDK2/CyclinA binding, anti-His/anti-Flag; hits give high values | z-score (concentration not given with the values) | 0.72% of 94,000 active;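 note: score is relative to mean and SD of negative controls; strong numbers were not always called active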
Starred values were filed as active, the others as inactive; . = not tested or not shown.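 Rule for the calls: active = z-score from 3 up in half or more of its runs; inactive = the rest.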

Compound,CDC25B-CDK2 inh,TAR Tat displ
COc1ccccc1CNC(=O)CN1CCCN(Cc2ccc(F)cc2Cl)C1=O,-1.94,.
O=C(C1CC(c2ccc(Cl)cc2)=NO1)N1CCCCC1 (configuration not stated),-1.01,-0.43
CCCNC(=O)C1CCC(CNc2c(N3CCC(C)CC3)c(=O)c2=O)CC1 (configuration not stated),-5.36,.
COC(=O)c1sc2nc(-c3cccs3)cc(C(F)(F)F)c2c1N,-1.07,1.29
NS(=O)(=O)c1ccc(-n2ncc3c(=O)[nH]c(SCc4ccc(C(F)(F)F)cc4)nc32)cc1,0.61,.
Cc1ccc(-c2nc3c(c(SCC(N)=O)n2)Cc2ccccc2O3)cc1,-2.72,-0.89
C=CCn1c(SC(C(C)=O)C(=O)OCC)nnc1-c1cnn(-c2ccccc2)c1N (configuration not stated),-1.7,.
Cc1ccc(-c2noc(-c3nnn(-c4cc(Cl)ccc4C)c3N)n2)cc1,.,1.45
Cc1ccccc1OCC(O)Cn1c[n+](C)c2ccccc21 (configuration not stated),0.1,-1.03
COc1c2ccoc2nc2c(OC)c(OCC(O)C(C)(C)O)ccc12 (configuration not stated),.,1.7
Cc1ccc(NS(=O)(=O)c2ccc3nc(-c4ccccc4)[nH]c3c2)cc1,-2.31,.
Clc1ccc(-c2nnc(SCC3CC3)o2)cc1,-0.2,.
O=C(CCS(=O)(=O)c1ccc2c(c1)CCN2C(=O)C1CC1)Nc1ccc(F)c(F)c1,.,0.19
O=C1CCC(c2ccc(F)cc2)=NN1c1ccc([N+](=O)[O-])cc1,-1.46,.
COCCNC(=O)CN1C(=O)c2ccccc2S1(=O)=O,1.23,0.63
Cc1ccccc1-c1nc(SCC(=O)N2CCC(C)CC2)n2[nH]c(=O)cc2n1,.,1.63
O=S(=O)(c1ccc2nc(-c3ccccc3)[nH]c2c1)N1CCN(c2ccc(Cl)cc2)CC1,0.15,.
COc1ccc(-c2noc(/C=C/c3ccccc3Cl)n2)cc1OC,-0.44,0.38
COc1ccc(-c2noc(-c3ccc[nH]c3=O)n2)cc1OC,-2.22,-1.22
Cc1cc(C)cc(NC(=O)C2Sc3nnc(C)n3NC2c2ccc(Cl)cc2)c1 (configuration not stated),-1.78,2.05
O=C1OCCN/C1=C/C(=O)c1ccccc1,-1.72,.
O=C(NCC(c1ccco1)N1CCOCC1)c1cc(=O)c2cc(Cl)ccc2o1 (configuration not stated),-1.47,1.34
O=C1CCC([N+](=O)[O-])C(c2ccccc2OCc2ccccc2)N1 (configuration not stated),-1.74,0.61
COC(=O)C1=C(OC(=O)C(C)C)c2ccccc2S(=O)(=O)N1C(C)C,0.52,0.12
Cc1ccn2c(=O)cc(COc3ccc(NC(=O)C(C)(C)C)cc3)nc2c1,.,1.56
Cc1nn2c3ccccc3n(CCN3CCCCC3)c2nc1=O,-0.14,-0.19
O=C(CSc1nc(-c2ccccc2)nc2cc(=O)[nH]n12)Nc1ccc2c(c1)OCO2,.,1.26
COCCNc1sc(S(=O)(=O)c2ccccc2)nc1S(=O)(=O)c1ccc(Cl)cc1,-0.67,0.28
Cc1ccc(C2=NS(=O)(=O)N(C)C(C(=O)NC(C)c3ccccc3)=C2)cc1 (configuration not stated),-1.59,3.08
COC(=O)[C@H](Cc1ccc(O)cc1)NC(=O)c1cccc(Cl)c1,-1.41,.
Cc1ccc(S(=O)(=O)NC(=O)Nc2c(C)n(C)n(-c3ccccc3)c2=O)cc1,0.44,.
CCn1cc(Cc2nnc(N)s2)c2ccccc21,-2.09,1.61
O=C(NCCCN1CCCCC1)c1cc(-c2cccnc2)nc2ccccc12,-2.27,.
CC1CCC(NC(=O)C2(C)Cn3c(cc4sccc43)C(=O)N2CCCN2CC(C)CC(C)C2)CC1 (configuration not stated),-1.48,2.22
N#Cc1c(-c2ccc(Cl)cc2)nc(SCCN2CCCCC2)[nH]c1=O,-0.01,-0.9
COc1cnc(CSc2nnnn2C)cc1OCC(=O)Nc1ccc(Cl)cc1,.,1.13
S=c1[nH]cnc2sc(-c3ccccc3)cc12,-1.17,.
c1ccc(-c2nc3ccccc3s2)cc1,0.61,-9.45
Cc1c(C)n(-c2ccc(F)cc2)c2ncn3nc(-c4ccccc4)nc3c12,-1.93,0.38
CCc1ccc(C2CC(c3ccc(Br)cc3)Nc3nnnn32)cc1 (configuration not stated),.,1.2
NC(=O)C1=CN(Cc2c(Cl)cccc2Cl)CCC1C(F)(F)F (configuration not stated),-1.58,.
CN(C1CCCCC1)C1CCN(C(=O)Cn2c(=O)oc3ccccc32)CC1,.,0.81
Cc1ccc(N(C(=O)c2cccs2)C2C=CS(=O)(=O)C2)cc1 (configuration not stated),-0.82,.
CC(=O)OCC(=O)[C@@]1(O)CCC2C3CCC4=CC(=O)CC[C@]4(C)[C@@]3(F)[C@@H](O)C[C@@]21C (some centres not stated),.,2.19
O=C(Nc1cc(F)ccc1F)c1c2c(nc3ccccc13)C(=O)N(C1CCCCC1)C2,.,1.42
Cc1nc(SCC(=O)Nc2ccc(F)c(Cl)c2)c2c3c(sc2n1)CCC3,-5.44,.
O=C1COc2cc(S(=O)(=O)N3CCN(Cc4ccc5c(c4)OCO5)CC3)c(Cl)cc2N1,.,-1.79
O=C(Nc1ccccn1)c1cc2ccc3cccnc3c2[nH]1,.,0.52
Cc1ccc2c(c1)N(C)/C(=C/c1sc3ccccc3[n+]1CCO)S2,-1.87,4.27*
CN(C)c1ccc(C2Nc3ccc(C(=O)c4ccccc4)cc3NC3=C2C(=O)CCC3)cc1 (configuration not stated),-1.13,-0.3

(more compounds)
Compound,CDC25B-CDK2 inh,TAR Tat displ
O=C(CCc1nc2sc3c(c2c(=O)[nH]1)CCCCC3)N1CCN(c2ccccc2F)CC1,.,0.19
CC1=C(c2ccc(Cl)cc2)S(=O)(=O)NC1=NCC(C)c1ccccc1 (configuration not stated),-2.93,-0.06
FC(F)(F)c1ccc(-c2noc(-c3ccno3)n2)nc1,-2.21,.
Cc1ccnc(N2CCCC(C(=O)Nc3ccc4c(c3)CCC4)C2)n1 (configuration not stated),-0.02,1.18
CC(=O)OCCNc1ccc2noc3c2c1C(=O)c1ccccc1-3,-1.71,-8.47
Cc1c(C(=O)NC(C)C)oc2ccc(S(=O)(=O)N3CC(C)CC(C)C3)cc12 (configuration not stated),0.56,.
CCOC(=O)c1c(NC(=O)c2ccco2)sc(C)c1-c1ccccc1,-1.23,.
CCCCSc1nc(-c2cccc(OC)c2)nc2c1Cc1c(CO)cnc(C)c1O2,.,0.53
CCc1ccc(-c2cc(C)no2)cc1S(=O)(=O)Nc1ccc(C)cc1,.,0
Cn1c(=O)c2c(SCc3ccc(C(F)(F)F)cc3)nc(-c3ccco3)nc2n(C)c1=O,-0.58,.
CN(Cc1ccccc1)[C@H]1CS(=O)(=O)C[C@@H]1S(=O)(=O)c1cccs1,-0.49,-0.6
COc1ccc(-c2c(C)nn3c(N4CCN(c5ccccn5)CC4)cc(C)nc23)cc1OC,-1.46,0.57
COc1ccc(-c2noc(-c3nnn(-c4cc(Cl)ccc4OC)c3C)n2)cc1OC,.,1.02
CCOC(=O)C1CCN(c2cc(NCC(C)C)c3c4c(onc24)-c2ccccc2C3=O)CC1,-1.09,1.24
CCOc1ccc(-n2ccc(=O)c(C(=O)Nc3nc4ccc(OCC)cc4s3)n2)cc1,-0.78,0.08
CCOC(=O)c1c(C)n(C)c2ccc(OCC(O)CN3CCCCC3)cc12 (configuration not stated),-1.67,2.49
CCOC(=O)N1CCN(CC(O)COc2cc(C)cc(C)c2)CC1 (configuration not stated),-0.79,2.06
COc1ccc(-c2noc(CNC(C)C)n2)cc1OC,-1.43,0.71
CC(C)c1nnc(NC(=O)CCCC(=O)O)s1,-0.54,1.29
CCCS(=O)(=O)c1ncc(Cl)c(C(=O)Oc2cc(C)cc(C)c2)n1,-1.64,-0.34
O=[N+]([O-])c1cc(Cl)c(-n2cccc2)cc1N1CCOCC1,-1.31,.
c1ccc(-c2oc3ncn4nc(-c5cccnc5)nc4c3c2-c2ccccc2)cc1,0.45,-0.15
CSc1ncc(C(=O)NCc2ccco2)c(C(F)(F)F)n1,.,1.11
O=C(CSc1ccccc1)Nc1cccc(OCc2cc(=O)n3c4c(sc3n2)CCCC4)c1,-1.46,0.2
O=C(Nc1ccc(F)cc1)Nc1nnc(N2CCc3ccccc32)s1,-0.65,2.3

Part of the list above, set out differently.
COc1ccc(-c2noc(CNC(C)C)n2)cc1OC
  CDC25B-CDK2 inh: -1.43
  TAR Tat displ: 0.71
c1ccc(-c2oc3ncn4nc(-c5cccnc5)nc4c3c2-c2ccccc2)cc1
  CDC25B-CDK2 inh: 0.45
  TAR Tat displ: -0.15
CCOc1ccc(-n2ccc(=O)c(C(=O)Nc3nc4ccc(OCC)cc4s3)n2)cc1
  CDC25B-CDK2 inh: -0.78
  TAR Tat displ: 0.08
CCCCSc1nc(-c2cccc(OC)c2)nc2c1Cc1c(CO)cnc(C)c1O2
  CDC25B-CDK2 inh: .
  TAR Tat displ: 0.53

Back to the main list, repeating the two entries before the break.
Compound,CDC25B-CDK2 inh,TAR Tat displ
O=C(CSc1ccccc1)Nc1cccc(OCc2cc(=O)n3c4c(sc3n2)CCCC4)c1,-1.46,0.2
O=C(Nc1ccc(F)cc1)Nc1nnc(N2CCc3ccccc32)s1,-0.65,2.3
Cn1c(=O)c2c(nc3n2CC(=O)N3c2ccc3c(c2)OCCO3)n(C)c1=O,-0.91,.
Cc1ccc(S(=O)(=O)Nc2cccnc2Oc2ccc(Cl)cc2)cc1,-0.47,.
Cc1cc(C)n(-c2ccc(SCc3ccc(Cl)cc3)nn2)n1,-1.35,.
CC1CCCC(C)N1C(=O)C(=O)c1c[nH]c2ccccc12 (configuration not stated),-1.34,.
CC1(C(=O)NC2CCCCC2)Cn2nc(-c3ccco3)cc2C(=O)N1Cc1ccco1 (configuration not stated),.,1.56
Cn1ncc2c(N3CCCC3)nc(N3CCCC3)nc21,.,1.41
O=C(CC1(O)C(=O)N(Cc2cccc(F)c2)c2ccccc21)c1ccccn1 (configuration not stated),-1.51,1.12
CCCCCNC(=O)Cc1sc(C)nc1-c1cccs1,-1.1,-2.09
Cc1ccc2[nH]c(C)c(CN(C)C)c(=O)c2c1,-1.2,-0.73
O=C(NCc1ccco1)c1ccc(N2CCSc3ncccc32)s1,.,1.43
O=C1CNC(=S)N1CCCn1ccnc1,-0.35,.
Cc1ccc(-n2nc(C)c3c(C(F)(F)F)cc(=O)[nH]c32)cc1,.,1.82
Cc1ccc(-c2onc(C)c2C)cc1S(=O)(=O)Nc1ccccc1,.,0.61
COc1cccc(OCCSc2n[nH]c3nc4ccccc4n23)c1,0.18,-0.03
Cc1ccccc1C(=O)NNC(=O)c1ccccc1C1=NCCCN1,-0.35,.
Cn1c(=O)oc2cc(S(=O)(=O)N3CCC(N4CCOCC4)CC3)ccc21,.,2.07
O=C(O)C12CC3CC(CC(Cl)(C3)C1)C2,-1.48,.
CCOC(=O)c1oc2ccc(OC)cc2c1CSc1ccccn1,-0.01,1.23
Cc1c(C(=O)N2CCCC2)c(S(=O)(=O)NC2CCCCC2)c(C)n1C,.,0.33
CC(c1ccccc1)N1CNc2c(c(=O)[nH]c(=O)n2-c2ccccc2F)C1 (configuration not stated),-0.64,-1.25
CC1CCCC(NC(=O)CN(C)S(=O)(=O)c2cnc[nH]2)C1C (configuration not stated),0.66,1.04
CCN1CCN(CCCNC(=O)C2CCN(c3nn4c(=O)cc(C)nc4s3)CC2)CC1,-0.61,0.57
Cc1cc2c3c([nH]c2cc1S(=O)(=O)NCCCN1CCCC(C)C1)CC(C)(C)CC3=O (configuration not stated),.,-0.4
CCc1ccc2c(c1)NC(c1cccs1)=NC(c1cccs1)=N2,-2.89,2.36
COc1ccc(-c2nc(CSc3nc4c(c(=O)[nH]3)CCC4)c(C)o2)cc1,-0.32,.
CCOC(=O)C(Sc1nc(N2CCOCC2)c2c(c1C#N)CC(C)(C)OC2)c1ccccc1 (configuration not stated),-1.85,0.89
C=CCOc1ccc(C2c3c(oc4ccc(Cl)cc4c3=O)C(=O)N2CCCN2CCOCC2)cc1 (configuration not stated),-1.37,-0.55
Cc1ccc2oc(C(=O)Nc3nnc(C(C)C)s3)cc(=O)c2c1,-1.14,1.75
CCCCCCNC(=O)OCCCCCCNC(=O)OC1CCN(Cc2ccccc2)CC1,-1.24,.
Cc1nnc(SCC(=O)Nc2ccc(F)cc2F)c2cc3sccc3n12,.,1.5
COc1ccc(NC(=O)N2CCC3(CC2)Nc2cc(F)ccc2-n2cccc23)cc1,.,-0.03
CN1CCN(c2nc(-c3ccccc3)c3cc(Cl)ccc3n2)CC1,-1.26,0.05
COc1ccc(-c2onc(C)c2C)cc1S(=O)(=O)Nc1ccc2c(c1)OCCO2,.,0.19

No enrichment for hits (roughly 0.87% active in at least one column).
